2A firefly: Primary qHTS Assay for Foot and Mouth Disease Virus Antivirals against NCGC Sytravon and CBC Compound Libraries: Firefly Luciferase Signal. HEK cells with a luciferase reporter of 2A StopGo recoding. Potency, µM (doses to about 57.5 µM), inactives show top-dose signal change, negative = less light. actives 0.23% (n = 120,000); active = well fitted falling curve with a large enough effect; inconclusive = small, poorly fitted or top-dose-only effect; inactive = no such curve, though single readings can be large or run the other way; note: nearly all actives have a fitted effect of over 60% in size; overnight with compound
2A Renilla: Primary qHTS Assay for Foot and Mouth Disease Virus Antivirals against NCGC Sytravon and CBC Compound Libraries: Renilla Luciferase Signal. HEK cells with a luciferase reporter of 2A StopGo recoding. Potency, µM (doses to about 57.5 µM), inactives show top-dose signal change, negative = less light. actives 0.32% (n = 120,000); active means well fitted falling curve with a large enough effect; inconclusive means small, poorly fitted or top-dose-only effect; inactive means no such curve, though single readings can be large or run the other way; note: nearly all actives have a fitted effect of over 55% in size; overnight with compound
An asterisk follows results filed as active; ? = inconclusive; & = joins results of further samples; [ ] = dose if it differs, or a comment. % is set by controls: 0 for no effect and ±100 for the full control effect; potency is the fitted concentration of half-maximal effect.

SMILES | 2A firefly | 2A Renilla
COc1cc(OC)cc(C(=O)N(C)Cc2cc(Br)ccc2OC)c1 | 8% | 243%[activator]
O=C(CCN1C(=O)C2C3CC(C(Br)C3Br)C2C1=O)OCC(=O)c1ccc([N+](=O)[O-])cc1 (stereo not given) | -3% | -7%
Cc1cccc(N2CCN(C(=O)C3CCCN(S(=O)(=O)c4ccc(Br)s4)C3)CC2)c1C (stereo not given) | ? | -3%
Cc1oc(-c2cccc(Cl)c2)nc1CSc1nnc(C)n2c1cc1occc12 | -3% | -4%
Cc1ccc(-c2nc(S(=O)(=O)c3ccc(C)cc3)c(SCC(=O)NC3CCCCC3)o2)cc1 | -21% | -3%
CCCCNC(=O)C1CCCN(Cc2nc(-c3ccc(Cl)cc3)oc2C)C1 (stereo not given) | -4% | 0%
COC(CNc1nc(Nc2ccc(F)cc2)c2cnn(-c3ccccc3)c2n1)OC | 12% | 9%
Cc1ccc(C)c(Cn2c3ccccc3c3cnn(CC(=O)N4CCCCC4)c(=O)c32)c1 | -7% | -7%
COc1ccc(S(=O)(=O)Oc2ccc3cc(-c4ccc(OC)c(OC)c4)c(=O)oc3c2)cc1 | 21% | 13%
CCOCCn1c(C2CCN(CCc3ccc(C(C)(C)C(=O)O)cc3)CC2)nc2ccccc21 | -17% | -8%
Cc1oc(-c2cccc(Cl)c2)nc1CN1CCC(C(=O)NCCc2ccc(Cl)cc2)CC1 | -20% | -20%
Cc1ccc(CNC(=O)C2CCN(S(=O)(=O)c3c(C)noc3/C=C/c3cccs3)CC2)cc1 | -7% | -4%
CS(=O)(=O)N1N=C(c2ccccc2)CC1c1cccs1 (stereo not given) | 189%[activator] | 159%[activator]
CC(C)CC(=O)NC(C)C1CC2CCC1C2 (stereo not given) | -6% | 3%
Cc1cc(C(=O)NCc2cccc(Br)c2)c2c(C)nn(-c3ccccc3)c2n1 | 25% | 14%
CNC(=O)COc1c(Cl)cc(Cl)c2ccc(C)nc12 | -1% | 4%
CCc1nc(SCC(=O)Nc2ccc(C(=O)OC)cc2)[nH]c1C | 14% | -2%
O=C(Nc1ccccc1)Nc1ccc(NC(=O)c2cc[n+]([O-])cc2)cc1 | 21% | 2%
CCOc1ccc(OCC(=O)NCCN2CCN(S(=O)(=O)c3ccc(C)cc3)CC2)cc1 | 14% | 9%
Cc1nn(CC(=O)NCc2ccc(OC(C)C)cc2)c(=O)c2c(C)n(-c3ccc(Cl)cc3)nc12 | -6% | -5%

Following part.
SMILES | 2A firefly | 2A Renilla
COc1ccc(NC(=O)c2sc3nc[nH]c(=O)c3c2C)cc1OC | -14% | -13%
CCc1ccc(NC(=O)CSc2ccc3nnc(CCNS(=O)(=O)c4ccc(OC)cc4)n3n2)cc1 | -13% | 25%
Cc1ccc(C(=O)CCN2CCC(c3ccccc3)C2)cc1 (stereo not given) | 78%[activator] | 5%
O=C1C=C(c2ccc(Cl)cc2)CC(c2ccccc2)C1 (stereo not given) | 0% | 13%
CCc1cccc(C)c1Nc1c(-c2ccc(SC)cc2)nc2sccn12 | 98%[activator] | 18%
CC(=O)NCc1ccc(-c2csc(Nc3cccc(C)c3)n2)o1 | 175%[activator] | 3%
Cc1ccc(CNC(=O)Cc2coc3cc(C)cc(C)c23)cc1 | -8% | -5%
CCOC(=O)c1cnc2ccc(OC)cc2c1NCCc1ccccc1 | 0% | 20%
Cc1ccc(NC(=O)CSc2nccn2C2CCCC2)cc1 | 7% | -4%
CCC(C)Nc1nc2c(c(=O)[nH]c(=O)n2C)n1Cc1ccc(F)cc1 (stereo not given) | 22%&-11% | 18%&-7%
Cc1nnc(C(=O)NC(C)(C)c2nc(C(=O)NCc3ccc(F)cc3)c(O)c(=O)n2C)o1 | -10% | -11%
COc1ccc(CCNc2oc(COc3cccc(C)c3)nc2C#N)cc1OC | -9% | -14%
CCOC(=O)c1c(C)[nH]c(C)c1S(=O)(=O)NCC(=O)Nc1cccc(Cl)c1 | -13% | 146%[activator]
N#Cc1nc(-c2ccc(OCc3ccc(Cl)cc3)cc2)oc1NCc1ccco1 | 51%[activator] | -2%
COC(=O)c1ccc(-c2nc3cc(NC(C)=O)ccc3o2)cc1 | 13% | -5%
O=C(Nc1cccc(-c2nn3cnnc3s2)c1)c1ccccc1 | 16% | 10%
COc1ccccc1NC(=O)CN1C(=O)c2ccccc2Sc2ccc(C(=O)N3CCCC3)cc21 | -19% | 14%
CC(C)(C)c1ccc(/C=N/Nc2ccc(S(=O)(=O)Nc3ccccc3)cc2[N+](=O)[O-])cc1 | 16% | 31%[activator]
CCOC(=O)c1noc2ncnc(Nc3ccc(C)c(F)c3)c12 | -6% | -5%
CCOC(=O)CNC(=O)Nc1cc(C(=O)NCc2cccc(F)c2)ccc1N1CCCC1 | -4% | 3%

More structures follow:
SMILES | 2A firefly | 2A Renilla
COc1ccccc1-c1coc2cc(OC(=O)c3ccccc3C)ccc2c1=O | 13% | -13%
COc1ccc(-c2nc(C)c(CCNC(=O)C(=O)Nc3c(C)cccc3C)s2)cc1OC | 17% | -4%
COc1ccc(OC)c(CN2CCc3ccccc3C2)c1 | 22% | 23%
CCCC1CCC(c2ccc(C(C)=O)cc2)CC1 (stereo not given) | 14% | 1%
COc1cccc(N2CCN(C(=O)c3ccc(NC(=O)c4nsc5ccccc45)cc3)CC2)c1 | -77% | 3%
Cc1cc(S(=O)(=O)[C@H]2CS(=O)(=O)C[C@@H]2N2CCN(c3ccc(F)cc3)CC2)ccc1F | -11% | -8%
CC1(C)C(=O)N(CC(=O)NC2CCCc3ccccc32)c2ccccc21 (stereo not given) | -1% | 11%
O=S1(=O)c2ccccc2N(Cc2ccc(F)cc2)c2ccccc21 | -4% | 25%
CC1=C(C(=O)Nc2ccccc2)C(c2cccs2)n2nc(SCc3ccccc3)nc2N1 (stereo not given) | -12% | -5%
O=C(Nc1cccc(C(F)(F)F)c1)C1CC2CCC1C2 (stereo not given) | 0% | 16%
CCONC(=O)c1cc2ccc(C(C)(C)C)cc2[nH]1 | 208%[activator] | -7%[1.06 µM]
CCCCc1c(C)nc2c(Cl)cccc2c1Cl | 8% | 0%
CC(C)c1ccc(NC(=O)CCCc2nc(-c3ccc(Cl)cc3)no2)cc1 | -8% | -13%
COc1cc(Cl)c(C)cc1NC(=O)c1cnn(-c2ccc(F)cc2F)c1C1CCN(C(=O)OC(C)(C)C)CC1 | -20% | -6%
CCc1cccc(NC(=O)CCc2c(C)nc3c(c2C)c(=O)n(C)c(=O)n3C)c1 | 8% | -5%
O=C(NCC1(c2ccccc2)CCC1)C12CC3CC(CC(C3)C1)C2 | 5% | 23%
Cc1cc(-c2ccc(S(=O)(=O)Nc3ccc(Cl)cc3)cc2)on1 | ? | 11%
COC(=O)COc1cc(C)cc2oc(=O)cc(-c3ccccc3)c12 | 16% | 1%
CCOC(=O)c1ccc(NC(=O)c2oc3ccc4c(c3c2C)C(=O)CC(C)(CC)O4)cc1 (stereo not given) | -48% | -5%
O=C(Nc1nnc(Cc2c[nH]c3ccccc23)s1)C1CCCCC1 | 0% | -5%

Remaining list, next part
SMILES | 2A firefly | 2A Renilla
O=C(CCC1CCCC1)NCc1ccc(OCc2cccnc2)cc1 | 38% | -9%
COc1ccc(Br)cc1S(=O)(=O)NCCN(C)C | -2% | 34%[activator]
CCn1c(COc2ccc(Cl)cc2)nnc1SCc1cc(C)ccc1C | -23% | 149%[activator]
COc1ccc(CNC(=O)c2ccc3nc(Cc4ccccc4F)oc3c2)cc1 | 51%[activator] | 21%
CCOC(=O)c1cc(-c2ccc(F)cc2)n(CC(=O)NC2CCCCCC2)c1C | -11% | -17%
CCCCCCCNCCCCCCC | 0% | 2%
CCCc1ccc(NC(=O)Cn2cnc3c2c(=O)n(C)c(=O)n3C)cc1 | 8% | -21%
Cc1c(Cl)cccc1NC(=O)CSc1nc(=O)n(CCN2CCOCC2)c2c1CCC2 | -7%&-10% | 32%&-7%[activator]
O=C(NCCc1ccc(Cl)cc1)c1ccc(CS(=O)Cc2ccccc2Cl)o1 (stereo not given) | ? | ?
Cc1ccc2c(COC(=O)CNC(=O)c3ccccc3)cc(=O)oc2c1 | -8% | -14%
CCOC(=O)C1CCN(C(=O)c2ccc(-n3ccc4ccccc43)s2)CC1 | 108%[activator] | -8%
Cn1c(=O)n(-c2ccc3c(c2)OCO3)c2nc(-c3ccccc3)nc(C(N)=O)c21 | -9% | -14%
COc1ccccc1NC(=O)c1sc2nc(C)c(C(=O)Nc3ccc(C)cc3C)c(-c3ccccc3Cl)c2c1N | -12% | -5%
CCOC(=O)c1sc2ccccc2c1S(=O)(=O)Nc1ccc(N(C)C)cc1 | 21% | 208%[activator]
Cn1c(SCC(=O)Nc2ccccc2C#N)nc2cc(-c3ccccc3)sc2c1=O | 14% | -1%
O=C(OCc1ccc(F)cc1Cl)c1ccccc1Sc1ccc(C(F)(F)F)cc1[N+](=O)[O-] | 16% | 2%
Cc1nc(COc2ccc(C(=O)N3CCc4ccccc43)cc2)no1 | 102%[activator] | 1%
O=C(Cc1c(Cl)cccc1Cl)N1CCN(c2ccccc2O)CC1 | -7% | -7%
CCC(C(=O)Nc1ccc(C(C)=O)cc1)n1c(=O)c(-c2ccccc2NC(C)=O)nc2ccccc21 (stereo not given) | 91%[activator] | 11%
CCOC(=O)c1cc(OC(=O)c2ccccc2Cl)n(-c2ccccc2)n1 | -1% | 1%

Two entries drawn at random from the list so far:
SMILES | 2A firefly | 2A Renilla
O=C(OCc1ccc(F)cc1Cl)c1ccccc1Sc1ccc(C(F)(F)F)cc1[N+](=O)[O-] | 16% | 2%
O=C(CCC1CCCC1)NCc1ccc(OCc2cccnc2)cc1 | 38% | -9%

Filtered by structure: the compounds so far with two or more sulfur atoms (10)
SMILES | 2A firefly | 2A Renilla
Cc1cccc(N2CCN(C(=O)C3CCCN(S(=O)(=O)c4ccc(Br)s4)C3)CC2)c1C (stereo not given) | ? | -3%
Cc1ccc(-c2nc(S(=O)(=O)c3ccc(C)cc3)c(SCC(=O)NC3CCCCC3)o2)cc1 | -21% | -3%
Cc1ccc(CNC(=O)C2CCN(S(=O)(=O)c3c(C)noc3/C=C/c3cccs3)CC2)cc1 | -7% | -4%
CS(=O)(=O)N1N=C(c2ccccc2)CC1c1cccs1 (stereo not given) | 189%[activator] | 159%[activator]
CCc1ccc(NC(=O)CSc2ccc3nnc(CCNS(=O)(=O)c4ccc(OC)cc4)n3n2)cc1 | -13% | 25%
CCc1cccc(C)c1Nc1c(-c2ccc(SC)cc2)nc2sccn12 | 98%[activator] | 18%
Cc1cc(S(=O)(=O)[C@H]2CS(=O)(=O)C[C@@H]2N2CCN(c3ccc(F)cc3)CC2)ccc1F | -11% | -8%
CC1=C(C(=O)Nc2ccccc2)C(c2cccs2)n2nc(SCc3ccccc3)nc2N1 (stereo not given) | -12% | -5%
CCOC(=O)c1sc2ccccc2c1S(=O)(=O)Nc1ccc(N(C)C)cc1 | 21% | 208%[activator]
Cn1c(SCC(=O)Nc2ccccc2C#N)nc2cc(-c3ccccc3)sc2c1=O | 14% | -1%

Following part.
SMILES | 2A firefly | 2A Renilla
CCCOCc1cc(CN2CCN(c3cccc(Cl)c3)CC2)c(O)c2ncccc12 | -37% | 2%
Cc1ccc(N2CC(NC(=O)c3ccccc3C(F)(F)F)CC2=O)cc1C (stereo not given) | -9% | 0%
CN(C)C(=O)CN(C)c1nc(-c2ccncc2)nc2ccccc12 | 10% | 0%
COc1ccc(OCCOC(=O)C2Cc3ccccc3C(=O)O2)cc1 (stereo not given) | 12% | 7%
O=C(COC(=O)CCNS(=O)(=O)c1ccccc1)Nc1cc(Cl)ccc1Cl | 1% | -3%
Cc1nnc(SC(C)C(=O)c2c[nH]c3ccccc23)s1 (stereo not given) | 14% | -2%
COCCNC(=O)CCSc1nc(-c2ccc3c(c2)OCO3)cc(C(F)(F)F)n1 | 5% | -9%
COc1ccccc1-c1noc(-c2ccc(NCc3cccnc3)c([N+](=O)[O-])c2)n1 | -8% | -8%
CC(NC(=O)c1ccc(Cn2c(SCc3ccccc3)nc3cccnc32)cc1)c1ccccc1 (stereo not given) | 60%[activator] | -8%
CC1=Nc2cc(C(=O)N3CCC(C)CC3)ccc2Sc2ccc(Cl)cc21 | 56%[activator] | 20%
O=S(=O)(NCC(c1ccco1)N1CCN(c2ccccc2)CC1)c1cc(F)ccc1F (stereo not given) | -22% | -8%
Cc1ccc(-c2cc(C(F)F)n3nc(C)c(Cl)c3n2)cc1C | 3% | -6%
Cn1c(=O)[nH]c(=O)c2c1nc(SCC(N)=O)n2CCCc1ccccc1 | 65%[activator] | 51%[activator]
Cc1ccc(OCCn2c(CNc3cccc(C)c3)nc3ccccc32)cc1 | 30%[activator] | 16%
COc1cccc(CNC(=O)c2c(O)nc3ccccn3c2=O)c1 | -14% | -10%
Cc1cc2c(cc3c(SCc4cccc(F)c4)nnc(C)n32)o1 | 95%[activator] | -12%
O=C(Cc1cccs1)N(Cc1ccco1)C1CC1 | 3% | 2%
CCC(=O)N1CCc2cc(S(=O)(=O)NC(Cc3ccccc3)C(=O)NCc3ccccc3)ccc21 (stereo not given) | -14% | 84%[activator]
COC(=O)c1ccc(OC(=O)c2ccc(OC)c(Br)c2)cc1 | -4% | 6%
N#Cc1cc2c(nc1SCC(=O)Nc1ccc(OC(F)(F)F)cc1)C1CCN2CC1 | ? | ?
Cc1cc(C)c(C(=O)COC(=O)c2ccc(C=O)cc2)c(C)c1 | -7% | -10%
Cc1ccc(Nc2nnc(-c3ccc(C)c(S(=O)(=O)N4CCOCC4)c3)c3ccccc23)c(C)c1 | -17% | -8%
COc1ccccc1CNC(=O)CCS(=O)(=O)c1ccc2c(c1)CC(C)N2C(=O)C1CC1 (stereo not given) | -2% | -4%

Bioassay records (PubChem)

No enrichment for hits; about 0.55% have a hit in one of these screens.
